Screening data from PubChem BioAssay.
Rce1 inh: yeast Rce1p protease inhibitors, primary screen, biochemical, fluorescence, cell-free homogeneous; CAAX prenyl protease 2 (Saccharomyces cerevisiae (strain ATCC 204508 / S288c)), Q03530; yeast membranes, quenched prenylated peptide cleavage fluorescence; calls only; 290,000 compounds, 0.27% hits; AID 2563, 2010;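 active means fall in fluorescence gain of 50% or more versus controls, with final raw signal at or below 3038400; inconclusive means same 50% fall but final raw signal above 3038400; inactive means fall in fluorescence gain under 50%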;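 further: plate controls were neutral control wells for no effect and wells lacking membranes for full effect; tested at 10 µM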
Target sequence (Q03530 whole entry, looked up): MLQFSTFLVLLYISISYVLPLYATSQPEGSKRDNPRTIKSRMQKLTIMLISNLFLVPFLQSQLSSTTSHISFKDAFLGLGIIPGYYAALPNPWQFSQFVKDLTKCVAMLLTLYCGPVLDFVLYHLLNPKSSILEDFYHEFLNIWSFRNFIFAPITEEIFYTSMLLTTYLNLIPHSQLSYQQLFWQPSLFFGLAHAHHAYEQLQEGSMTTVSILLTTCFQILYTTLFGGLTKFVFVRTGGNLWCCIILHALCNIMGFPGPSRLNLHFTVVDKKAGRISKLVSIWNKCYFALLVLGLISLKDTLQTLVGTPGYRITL
Env fusion inh: inhibitors of HIV-1 Env-driven cell-cell fusion, primary screen, HeLa-JRFL effector, CEM21 target cells, luciferase; 360,000 compounds, 1.1% hits; inhibition, % at 12.3 µM;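 active means mean replicate inhibition score of at least 50 and every replicate individually at or above 50; inconclusive means only one of the two criteria met; inactive means mean below 50 and not all replicates reaching 50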;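 further: 0% = plate neutral controls and 100% = maraviroc near 300 nM; one replicate is shown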
PABP FP inh: PABP poly(A) RNA binding inhibitors, primary screen, biochemical, fluorescence polarization, uHTS. AID 2014, 2009. 290,000 compounds, 1% hits. inhibition, % at 35 µM. Polyadenylate-binding protein 1 (Homo sapiens), P11940;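 active means 50% or more with normal probe brightness, or confirmed in later tests; inconclusive means above 50% with abnormal brightness, or retests that disagree; inactive means below 50% or failed in later tests; about a fifth of its hits are not listed in these tables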;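 further: calls also rest on retests at 20 µM and on dose response follow-up; controls were probe without protein and protein plus probe with vehicle; some compounds called inactive have numbers as strong as hits; many hits fall short of the cut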
MT1-MMP act inh: blockers of MT1-MMP proenzyme processing, primary screen, HT1080 RFP-PRO-GFP cells, GFP/RFP fluorescence; Matrix metalloproteinase-14 (Homo sapiens), P50281; AID 651647, 2012; GFP/RFP ratio change, % at 20 µM; 360,000 compounds, 0.061% hits; GFP/RFP ratio fluorescence, overnight; percent of plate control window, DMSO zero;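 active means GFP/RFP ratio change of at least 30% with cell ATP level not reduced by more than half and red fluorescence within 50% of control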; further: strong numbers were not always called active
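Compound: 20 µM single dose, 1% DMSO / System: HT1080 RFP-PRO-GFP cells / Controls: DMSO and RFP-L50D-GFP cell wells / Read-out basis: GFP/RFP fluorescence ratio / Schedule: overnight compound exposure at 37 °C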
CSC inhib: cancer stem cell viability inhibitors, primary screen, luminescence | cancer stem cell-like cells viability | inhibition, % at 7.5 µM | 300,000 compounds, 1.1% hits;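 active means mean at 75% or more and at least half the replicates too; inconclusive means mean and replicates disagree; tested in HMLE shEcad cells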;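 further: 0% = median of negative and 100% = median of positive control wells; the first replicate is given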
UUG fidelity: modulators of yeast start codon fidelity, primary screen, whole organism, S. cerevisiae, single point, plate reader; AID 602363, 2012; 350,000 compounds, 0.13% hits; activity score, % at 18.7 µM; S. cerevisiae UUG-firefly luciferase reporter, luminescence/redox ratio;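 active means replicate mean at a twofold rise or more, about +100% in these data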;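 further: firefly luciferase made from a UUG start codon reports start codon fidelity; reporter light over untreated wells divided by growth signal over untreated wells; some hits fall short of that in this replicate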
eIF4H inh: human eIF4H binding inhibitors, primary screen, translation initiation inhibitor project, biochemical, uHTS, fluorescence polarization. Eukaryotic translation initiation factor 4H (Homo sapiens), Q15056. eIF4H fluorescence polarization binding assay. inhibition, % at 35 µM. 290,000 compounds, 0.94% hits;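 active means 50% or more with normal probe brightness, or confirmed in later tests; inconclusive means above 50% with abnormal brightness, or retests that disagree; inactive means below 50% or failed in later tests; about a fifth of its hits are not listed in these tables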;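 further: calls also rest on retests at 20 µM and on dose response follow-up; 0% = protein and probe with vehicle and 100% = probe without protein; strong numbers were not always called active; many hits fall short of the cut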
eIF4H inh retest: recorded beside eIF4H inh, whose call it bears; inhibition, %; compound at 20 µM; confirmation average;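 mean of two retest wells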
PABP FP inh retest: also measured in PABP FP inh; calls as there; inhibition, %; compound at 20 µM; confirmation repeats;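 mean of two retest wells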
MT1-MMP act inh RFP: recorded beside MT1-MMP act inh, whose call it bears; RFP signal change, %; measured here: RFP expression control read;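 0 = vehicle wells; hits needed this value within 50% of zero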
* hit, by the source's call; i = inactive; ? = inconclusive; / = no result given. Random draw from the library; 3% or so of the library scored in one or more.

SMILES	Rce1 inh	Env fusion inh	PABP FP inh	MT1-MMP act inh	MT1-MMP act inh RFP	CSC inhib	UUG fidelity	eIF4H inh	others
Cc1cc(C(=O)NC2CC(C)(C)Cc3c2cnn3-c2cccc(F)c2)n(C)n1 (configuration not stated)	i	/	-2	-1	-10	6	3	-16
Cc1[nH]c2ccccc2c1C1=CC(=O)C=CC1=O	/	?	/	3	-1	/	-15	/
COc1ccc(/C=C/C(=O)c2cc(F)ccc2OC(=O)c2ccc(OC)c(OC)c2)cc1OC	i	-1	7	-4	-3	3	-6	5
Cc1ccc(Cn2nc3c(cc2=O)CCc2ccccc2-3)cc1	i	5	-10	-3	-3	14	/	-4
O=C(N/N=C/C1CCCCC1)c1ccccn1	/	-21	-11	1	4	-15	/	-5
OCc1ccc(OCCCOc2cccc3cccnc23)cc1	i	-44	7	0	-3	-4	-17	-1
CCOC(=O)c1cn2nc(Oc3ccc(C#N)cc3)ccc2n1	i	-1	2	-2	3	-13	/	-8
COc1cc(/C=N/N2C(=O)C3C4C=CC(CC4)C3C2=O)ccc1O (configuration not stated)	i	0	6	5	6	2	/	-6
Cc1ccc2c(c1)nnc1nnc(SCC(=O)O)n12	i	3	?	-1	8	-18	-4	?
CC(C)NC(=S)NC1(C)CCS(=O)(=O)C1 (configuration not stated)	i	-7	-6	0	-1	-4	/	-3
C=CCOc1cccc(C2C(C(=O)c3cccs3)=C(O)C(=O)N2Cc2cccnc2)c1 (configuration not stated)	i	12	12	1	8	-3	/	-11
O=C(COC(=O)Cc1c[nH]c2ccccc12)Nc1ccc(Cl)cc1	/	15	/	7	3	/	-9	/
O=C(N/C(=C\c1ccc(Cl)cc1)C(=O)N1CCOCC1)c1ccc([N+](=O)[O-])cc1	i	11	3	1	6	5	/	-5
CC(=O)Nc1ccc(NC(=O)CCCn2cnc3ccccc3c2=O)cc1	i	-4	17	0	5	-5	-6	-9
COC(=O)c1ccccc1NC(=O)CSc1nnc(C(CO)NC(=O)c2ccccc2)n1C (configuration not stated)	i	/	0	-1	2	2	3	0
O=C(NCc1ccon1)C1CCC(=O)N(CCc2ccc(Cl)cc2)C1 (configuration not stated)	i	-3	9	3	0	-1	-10	6
NNC(=O)CCCCCCCCCCOCCCCO	i	-14	-8	0	-5	6	/	-6
COc1cccc(C(=O)Nc2cc(C)ccc2NC(=O)COc2ccccc2)c1	i	22	-2	9	1	-9	-14	2
CCCN(CC(=O)Nc1ccc(Cl)cc1Cl)C(=O)CC(NC(C)=O)c1ccccc1 (configuration not stated)	i	11	8	-1	-1	-12	17	-3
Cc1ccc(C(C)C)c(OCc2nn(CC(=O)c3ccc(Cl)cc3)c3[n+]2CCCCC3)c1	i	33	3	-53	-29	?	/	-6
CN(Cc1ccc(F)cc1)C(=O)COc1ccccc1-c1ccccc1	i	23	-27	2	0	12	-2	-4
O=C(NCCCN1CCOCC1)c1sc2cc(F)ccc2c1Cl	i	-8	6	2	2	-15	44	0
COc1ccc(CCNC(=O)CN(Cc2ccc(Cl)cc2)S(C)(=O)=O)cc1OC	i	15	11	3	-2	-2	3	-3
Cc1ccc(/C=C(/C#N)c2nc(CCN3C(=O)c4ccccc4C3=O)cs2)cc1	i	-29	-4	-2	-1	7	1	-6
CC(=O)N1CCCc2cc(S(=O)(=O)NCc3ccc(C)cc3)ccc21	i	/	-4	4	-4	-8	9	4
COc1ccc(CNc2nc(-c3cccnc3)nn2C(=O)c2ccco2)cc1	i	/	-11	0	-4	-4	/	-6
CN1C(=O)c2cccc3c(N(C)C)ccc(c23)C1=O	i	26	?	-135	-1	35	-7	?
O=C(Nc1ccccc1)O/N=C/c1ccccc1Cl	i	/	-2	6	2	8	-6	6
Cc1cc([N+](=O)[O-])ccc1N	i	-24	/	5	0	6	/	/
Cc1ccc(NC(=O)COC(=O)Cc2cccs2)c(Br)c1	i	11	-9	0	3	-12	-6	1
CCOC(=O)c1c(NC(C)=O)sc2c1CCC(C=NCCCN(CC)CC)=C2Sc1ccccc1	i	/	/	-12	-5	61	-18	/
CC(=O)Nc1cccc(-c2csc(C(C)(NC(C)=O)c3ccccc3)n2)c1 (configuration not stated)	/	2	/	2	9	/	-20	/
COC(=O)c1c(NC(NC(=O)C(C)C)C(Cl)(Cl)Cl)sc2c1CCCC2 (configuration not stated)	i	?	-11	3	7	/	/	7
Cn1c(=O)c2c(nc(NCc3cccnc3)n2Cc2ccc(Cl)cc2)n(C)c1=O	i	/	-10	-7	-3	11	-18	-2
N/C(=N\NC(=O)Nc1ccc(Cl)cc1)c1ccccn1	i	-27	-4	1	-2	/	0	5
COCCCNC(=O)CCc1nc(-c2ccccc2Cl)no1	i	-119	8	3	9	/	11	-8
CN(C(=O)c1ccc(NC(=O)Cc2cccc(NC(=O)C3CCN(C(=O)C4CCC4)CC3)c2)cc1)C1CCCC1	/	-4	/	2	-1	-6	9	/
Cc1c(S(=O)(=O)N2CCN(c3ccc(F)cc3)CC2)c(=O)n(C)c(=O)n1C	i	-4	9	-5	3	0	-15	-9
CC(=O)Nc1ccc(NC(=O)CCN2C(=O)c3ccccc3C2=O)cc1	i	-3	-2	0	3	6	-13	16
CCOC(=O)c1cc(NC(=O)Nc2ccccn2)c(C)nc1C	i	-6	2	-3	-7	-6	/	1
COC(=O)c1cc(-c2ccc(C)o2)nc2ccccc12	i	-13	6	-5	2	6	1	7
CC(NC(=O)Cc1ccc(S(=O)(=O)N2CCOCC2)s1)c1ccc(Br)cc1 (configuration not stated)	/	4	/	-1	-6	/	-14	/
O=C(Nc1ccnn1C1CCN(Cc2ccn[nH]2)CC1)c1ccccc1	i	-17	-6	-3	4	11	-11	-5
COc1cc(C=O)ccc1OCCSc1ccc(Cl)cc1	i	-65	-8	-1	-1	-4	12	87	eIF4H inh retest=4;PABP FP inh retest=-3
O=C1CC(C(=O)N2CCN(c3ccccc3O)CC2)CN1Cc1ccccc1 (configuration not stated)	i	/	/	2	0	-10	-5	/
COc1ccccc1CCC(=O)Nc1ccc(S(=O)(=O)Nc2ncccn2)cc1	/	12	/	-2	7	/	-15	/
Cc1cc(C)c2cc(C(=O)N3CCC(N4CCCCC4)CC3)[nH]c2c1	i	?	9	1	4	-4	-10	8
COC(=O)c1ccc(Cn2cnc3ccccc3c2=O)cc1	/	-83	-2	-25	-8	-7	-20	-1
O=C(NC1CCCCC1)C12CC3CC(C1)CC(n1cncn1)(C3)C2	i	/	0	1	2	-16	/	-8
COc1ccccc1S(=O)(=O)c1ccccc1[N+](=O)[O-]	i	0	-1	0	5	-8	-13	0

Later entries.
SMILES	Rce1 inh	Env fusion inh	PABP FP inh	MT1-MMP act inh	MT1-MMP act inh RFP	CSC inhib	UUG fidelity	eIF4H inh	others
CCCCN1C2=NC(c3ccccc3)CN2c2ccccc21 (configuration not stated)	i	-39	/	-6	-6	-18	/	/
O=c1[nH]cnc2scc(-c3ccc(Br)cc3)c12	i	-27	-6	-1	-11	1	/	4
CCC/C=C/c1ccc(CN2C(CC(C)C)C(=O)N(Cc3cn(CCC4OCCCO4)nn3)CCS2(=O)=O)cc1 (configuration not stated)	/	4	/	3	-1	/	19	/
CC1CCN(C(=O)CN2C(=O)COc3ccc(Cl)cc32)CC1	i	-3	-3	0	2	/	-13	-1
CC(C)c1ccc(CNC(=O)C(=O)NCCCn2ccnc2)cc1	i	1	-15	2	0	12	-19	7
Cc1cccc(NC(=O)/C=C/c2cccs2)n1	i	-244	0	-11	-9	5	-36	2
COc1ccc(OC)c(S(=O)(=O)Nc2ccc3oc(C)c(C(C)=O)c3c2)c1	i	13	-3	0	-8	3	-16	0
COc1ccc(C(=O)NNc2ccccc2)cc1	i	-17	12	-3	0	131*	-6	-2
NC(N)=N/N=C/c1ccc(OCc2ccccc2)c(OCc2ccccc2)c1	/	-11	2	4	1	2	-15	-33
CCC(C)(C(=O)NC1CCCC1)N(C(=O)c1cnccn1)c1ccccc1 (configuration not stated)	i	6	5	2	3	-7	-15	-3
Nc1n[nH]c(CCCO)n1	i	13	2	5	4	-3	-6	0
N/C(Cc1ccc(Cl)cc1)=N\OC(=O)CCc1ccccc1	/	14	/	0	6	/	-12	/
COC(=O)CN1C(=S)N(Cc2ccccc2)C(=O)C1CC(=O)Nc1ccc(OC)cc1 (configuration not stated)	i	3	-8	2	4	/	/	-8
CC(C)(C)OC(=O)NCCCCCc1nnc(SCc2ccc(F)cc2)o1	i	8	-2	4	-4	11	-5	-4
CCc1nc(SCC(=O)N2c3ccccc3CC2C)c2c(C)c(C)sc2n1 (configuration not stated)	i	/	4	-8	-12	48	/	-16
CCC(CO)Oc1cc(NCc2ccccc2F)c2ncn(C(C)C)c2c1 (configuration not stated)	/	-4	/	1	9	-3	-2	/
CN(C)CCNC(=O)Cn1nc(C(F)F)cc1C1CC1	i	-9	-6	-4	-1	-10	-9	-8
COc1ccc(C)cc1NC(=O)CCN1CCN(C/C=C/c2ccccc2)CC1	i	-21	-11	-1	-3	-12	0	-13
Oc1ccc2ccccc2c1CNc1ccccc1	/	i	/	5	6	/	-23	/
Cc1cc(Cl)nc(Cl)c1C(=O)NCCc1ccccc1	/	/	/	-3	-5	-26	-18	/
Cc1ccc(N(CC(=O)Nc2cccc(C)c2)S(=O)(=O)c2cccc3nonc23)cc1	i	0	-12	-8	-4	3	-10	-2
CC(C)C(=O)c1cn(CC(=O)NCc2ccc3c(c2)OCO3)c2ccccc12	i	-22	-6	-3	0	11	-21	5
COC(=O)c1ccc(OC)c(OC2CCCC2)c1	/	6	1	-1	1	-13	/	-5
COc1cc(C)ccc1OCCCOc1ccccc1Cl	i	/	-6	2	-3	22	-22	-7
O=C(Nc1ccc(F)c(Cl)c1)c1ccc2sc([C@@H]3O[C@H](CO)[C@H](O)[C@H](O)[C@H]3O)nc2c1	/	-44	/	8	7	/	-5	/
N#C/C(=C(/O)CSc1ccccn1)c1nc2ccccc2s1	i	11	0	-5	4	14	/	?
O=C(Nc1nnc(CC(=O)N2CCOCC2)s1)c1cccs1	i	/	7	-11	-1	/	15	-1
CCN(c1ccccc1)S(=O)(=O)c1cc2c(cc1C)N(C)CCO2	i	17	0	0	2	/	15	-1
CCCCn1c(N)c(N(CCOC)C(=O)c2ccco2)c(=O)[nH]c1=O	i	5	/	0	8	-7	-35	/
O=C(O)C(Cc1ccccc1)N1C(=O)/C(=C/C=C/c2ccco2)SC1=S (configuration not stated)	i	11	97*	-4	34	/	-14	85*
CC(NC(=O)C1CCN(S(=O)(=O)N2CCC3(CC2)OCCO3)CC1)c1ccccc1 (configuration not stated)	i	-9	17	3	6	3	/	2
